High-throughput results (PubChem)
UCH37 inh = inhibitors of human UCH37 deubiquitinase, primary screen, biochemical, Ub-AMC cleavage, fluorescence. Ubiquitin carboxyl-terminal hydrolase isozyme L5 (Homo sapiens), Q9Y5K5. purified proteasome/UCH37. inhibition, % (test concentration not listed). 330,000 tested, 0.33% active. AID 588478, 2011;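 active means mean of two replicates above 20%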;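 further: 0% = compound-free wells with enzyme and 100% = wells lacking proteasome; stock transfer was 100 nL into about 20 µL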
Target sequence (Q9Y5K5 whole entry, looked up): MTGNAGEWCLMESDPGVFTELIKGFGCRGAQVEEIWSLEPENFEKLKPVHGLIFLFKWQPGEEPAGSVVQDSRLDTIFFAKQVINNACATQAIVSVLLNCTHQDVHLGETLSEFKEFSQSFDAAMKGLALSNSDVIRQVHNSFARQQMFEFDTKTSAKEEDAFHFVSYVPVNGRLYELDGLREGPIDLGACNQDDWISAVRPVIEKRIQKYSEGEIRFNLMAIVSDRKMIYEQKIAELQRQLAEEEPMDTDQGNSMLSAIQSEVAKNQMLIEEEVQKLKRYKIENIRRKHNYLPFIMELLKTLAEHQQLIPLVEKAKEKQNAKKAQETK
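Test system – human UCH37 enzyme supplied as purified proteasome complex · Incubation – 30 min preincubation with enzyme, 25 min cleavage at room temperature · Detection – AMC fluorescence from Ub-AMC cleavage, excitation 355 nm, emission 460 nm · Benchmarks – no-proteasome wells (full inhibition) and compound-free wells (no inhibition)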
ALR H2O2 inh = inhibitors of human ALR sulfhydryl oxidase, primary screen, biochemical, H2O2 detection, HRP-luminol luminescence, single point; FAD-linked sulfhydryl oxidase ALR (Homo sapiens), P55789; purified ALR, DTT oxidation; inhibition, % (no concentration beside the values); 290,000 tested, 3.8% active;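 active means mean and each replicate at 75% or more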;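 further: stock transfer was 7.5 nL into about 7.5 µL; 0% = neutral wells and 100% = wells with inactivated enzyme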
Target sequence (P55789 whole entry, looked up): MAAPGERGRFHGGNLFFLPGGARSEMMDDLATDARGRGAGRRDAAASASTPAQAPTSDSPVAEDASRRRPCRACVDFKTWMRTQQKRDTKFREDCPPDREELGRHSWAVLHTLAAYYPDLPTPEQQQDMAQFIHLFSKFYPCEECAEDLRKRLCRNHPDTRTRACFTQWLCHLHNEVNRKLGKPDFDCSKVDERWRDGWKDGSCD
B2AR ag = beta2AR agonists driving receptor internalization, primary screen, cell-based, FAP fluorogen, flow cytometry. 340,000 tested, 0.43% active. response, % (concentration not given with the values). Beta-2 adrenergic receptor (Homo sapiens), P07550. AID 504454, 2011. Am2.2-beta2AR cells; reference of the scale not given here;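 active means response above a set limit, near 3 SD of response in nonfluorescent compounds, cut at about 42% in these data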;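 further: stock transfer was 100 nL into about 11 µL; a reference agonist was the positive control; negative values mostly stem from fluorescent compounds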
Target sequence (P07550 whole entry, looked up): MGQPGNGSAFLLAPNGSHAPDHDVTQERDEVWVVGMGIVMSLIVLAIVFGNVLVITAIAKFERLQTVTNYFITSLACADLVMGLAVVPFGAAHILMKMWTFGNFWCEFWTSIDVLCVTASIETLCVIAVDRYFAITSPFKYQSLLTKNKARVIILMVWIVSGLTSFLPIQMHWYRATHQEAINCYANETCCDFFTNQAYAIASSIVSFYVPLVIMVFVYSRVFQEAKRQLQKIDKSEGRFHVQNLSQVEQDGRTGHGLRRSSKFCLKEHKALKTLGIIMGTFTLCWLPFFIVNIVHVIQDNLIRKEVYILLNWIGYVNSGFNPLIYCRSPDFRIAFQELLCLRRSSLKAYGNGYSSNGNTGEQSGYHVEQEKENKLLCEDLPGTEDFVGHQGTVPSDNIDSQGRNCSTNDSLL
FGF22 binding = binders of human FGF22 protein, primary screen, FGF22 synaptogenesis inhibitor project, biophysical, thermal shift, single point; Fibroblast growth factor 22 (Homo sapiens), Q9HCT0; recombinant FGF22 thermal shift, SYPRO orange fluorescence; percent of sucrose octasulfate shift, DMSO zero; calls only at 9.99 µM; 340,000 tested, 1.5% active; AID 651658, 2012;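 active means melting point raised past a set limit in the mean and every replicate; three in four hits are not shown here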
E coli growth = E. coli growth inhibition, primary screen, OD600; Escherichia coli growth, 23 h; stronger effect = lower value; OD600 absorbance (no concentration beside the values); 330,000 tested, 0.21% active;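 active means OD600 absorbance below the run mean of sample wells minus 3.6 SD, in any replicate, cut at about 0.56 in these data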;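 further: stock transfer was 300 nL into about 60 µL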
rRNA inh HTS = reduced GFP signal of wild-type E. coli, primary screen, bacterial rRNA inhibitor project, GFP/RFP fluorescence, OD600, single point; E. coli WT GFP vs humanized-ribosome RFP mutants, 24 h; stronger effect = lower value; DMSO median 0, no signal -100; GFP signal change (wild-type ribosome), % (concentration not given with the values); 350,000 tested, 1.6% active; AID 720706, 2013;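 active means significant combined selectivity score with lowered wild-type GFP, culture density cut under 30%, mutant RFP and density less affected; inactive means any of these conditions unmet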; further: one replicate is shown; some compounds called inactive have numbers as strong as hits
HNF4A DNA FP = change in binding of human HNF4A to DNA, primary screen, biochemical, fluorescence polarization, FITC-DNA; 1 h; activity change, % at 10 µM; 360,000 tested, 0.3% active; AID 1224865, 2016; in the data active means activity change above about 30%, passing the limit was not always enough;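 further: controls were the assay level and a saturating level of protein; the project sought stronger binding though the title names inhibitors; some compounds called inactive have numbers as strong as hits; positive values seem to mean higher polarization but the record does not say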
rRNA inh HTS OD600 = recorded beside rRNA inh HTS, whose call it bears; OD600 change, %; measured here: OD600 growth;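 optical density of the mix in the first replicate; 0 = DMSO median and -100 = no signal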
rRNA inh HTS RFP = recorded beside rRNA inh HTS, whose call it bears; RFP signal change, %; measured here: RFP humanized mutant strains;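 first replicate; 0 = DMSO median and -100 = no signal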
The depositor's hits bear a star; i = inactive; / = not tested or not shown; & = joins results of further samples. Not all compounds are listed; rates above refer to the full screens.

canonical_smiles | UCH37 inh | ALR H2O2 inh | B2AR ag | FGF22 binding | E coli growth | rRNA inh HTS | rRNA inh HTS OD600 | rRNA inh HTS RFP | HNF4A DNA FP
CC(C)C(c1nnnn1C1CCCC1)N1CCc2ccccc21 (configuration not stated) | 3.6 | 99* | 1 | / | 0.68 | / | / | / | 0.4
Cc1ccc(NC(=O)C(C)SCC(=O)Nc2ccc(F)cc2)cc1S(=O)(=O)N1CCOCC1 (configuration not stated) | 2.6 | -9 | 12 | i | 0.66 | 1 | -5 | -0.5 | 3.7
CCc1ccc(-c2cc(C)no2)cc1S(=O)(=O)NCCN1CCC(C)CC1 | 1.6 | 0 | -11 | i | 0.64 | 2 | 0 | 0.7 | 1.4
COc1ccc(C2OC(=O)CC2C(=O)N2CCN(c3cc(Cl)ccc3C)CC2)cc1OC (configuration not stated) | 0.8 | -4 | -2 | i | / | -3 | -18 | 3.3 | 0.7
CC1CC(NC(=O)c2c(O)nc3ccccn3c2=O)CC(C)(C)C1 (configuration not stated) | / | / | 7 | i | / | 2 | 0 | -2.2 | -1.7
CCCNC(=O)CCn1cc(-c2ccc(OC)cc2)nc1CCN | 1.2 | 10 | 0 | i | 0.64 | 13 | 5 | 12 | -4.3
C=CCSC1=C(C#N)C(c2ccccc2Cl)C(C(=O)c2cccs2)C(O)(C(F)(F)F)N1 (configuration not stated) | 2.8 | 1 | 4 | i | 0.66 | -23 | -44 | 17 | -1.4
O=C(NCC(=O)N(c1cccnc1)C(C(=O)NC1CCCCC1)c1ccccc1F)c1ccco1 (configuration not stated) | 0.9 | 4 | -1 | i | 0.65 | -2 | 9 | -2.1 | 0.6
COc1ccc(N2CCN(C(CNC(=O)c3cccs3)c3ccco3)CC2)cc1 (configuration not stated) | 1.4 | / | -4 | i | 0.69 | -10 | -17 | -1.0 | 2.0
Cc1nnc2ccc(Oc3ccc(-c4ccccc4)cc3)nn12 | 1.6 | 51 | -11 | / | 0.62 | / | / | / | 5.5
O=C(Nc1cccc(NC(=O)c2ccccc2F)c1)c1ccccc1 | 4.1 | -1 | 4 | i | 0.68 | 8 | 4 | -5.1 | 1.6
CCN(CC)S(=O)(=O)c1ccc(N2CCOCC2)c(NC(=O)c2ccc3c(c2)OCCO3)c1 | 1.0 | 1 | 3 | i | 0.68 | -17 | -17 | -3.6 | -1.4
CCOC(=O)COc1cc(O)c2c(=O)cc(-c3ccccc3)oc2c1 | 0.5 | -3 | -10 | i | 0.69 | 10 | 19 | 1.2 | -0.1
Cc1ccc(C(=O)NCc2ccc3c(c2)OCO3)c(C)c1 | 1.2 | -5 | -3 | i | 0.68 | 6 | 9 | -3.4 | -0.4
O=C(NCC1CCCO1)c1nn2c(c1Cl)NC(c1ccc(F)cc1)CC2C(F)(F)F (configuration not stated) | 2.6 | -2 | -6 | / | 0.69 | / | / | / | -3.1
O=c1cc(O)c2ccccc2n1Cc1ccccc1F | 1.5 | -8 | 9 | i | 0.69 | -1 | -2 | 1.0 | -1.5
CCOc1c(N2CCCCC2)c(=O)c1=O | 4.7 | -3 | -2 | / | 0.76 | / | / | / | 3.7
CC(C)Cc1nnc(NC(=O)CCC(=O)N2CCN(Cc3ccc(Cl)cc3)CC2)s1 | 1.7 | -1 | -5 | i | 0.68 | -1 | -3 | -1.7 | 9.2
CN(C(=O)CC(NC(=O)c1ccccc1)(c1ccccc1)c1ccccc1)c1ccccc1 | 4.4 | -3 | 0 | / | 0.7 | / | / | / | 3.8
COc1ccc(-c2noc(CCC(=O)NCCc3cccc(C)c3)n2)cc1 | -0.7 | -1 | 2 | i | 0.69 | -12 | -10 | -3.6 | 0.1
O=C(Cn1nc(C(F)F)cc1C(F)F)NNC(=S)Nc1ccc(Cl)cc1 | 3.9 | 17 | 2 | i | 0.64 | -16 | -9 | 0.4 | 0.8
COc1ccccc1Cc1c(-c2ccc(OC)c(OC)c2)nc2ccc(Br)cn12 | / | / | / | i | / | -4 | 1 | 12 | 21
Cc1ccc(NC(=O)c2cccc(S(=O)(=O)N3CCN(c4ccc(F)cc4)CC3)c2)nc1 | 2.5 | 8 | 11 | i | 0.68 | -4 | -9 | 1.4 | 0.7
CCSc1nc(N2CCOCC2)c2ccccc2n1 | 7.6 | -6 | -1 | / | 0.69 | / | / | / | -1.2
Cc1noc(C)c1S(=O)(=O)Nc1ccc2c(c1)C(=O)N([C@H](C)CO)C[C@H](C)[C@@H](CN(C)C(=O)Nc1ccccc1)O2 | 3.4 | / | -3 | i | 0.73 | 2&7 | 5&0 | -1.3&1.2 | -0.1
CCOc1ccccc1N(C(=O)c1ccco1)C(C(=O)NC1CCCC1)c1cccnc1 (configuration not stated) | -1.2 | / | 1 | / | 0.79 | / | / | / | -2.9
CS(=O)(=O)N(CC(N)=O)Cc1ccc(Cl)cc1 | -1.9 | 0 | 4 | i | 0.7 | 7 | 2 | -7.1 | 5.4
CC(C)(C)c1cc(CN(CCO)CCO)c(O)c(C(C)(C)C)c1 | 3.8 | / | -8 | i | 0.71 | -8 | -9 | 2.9 | -0.9
COC(=O)C1=C(C(=O)OC)SC(=C2C(=S)C(C)(C)N(C(=O)CC(C)C)c3ccccc32)S1 | 6.2 | -5 | 13 | i | 0.68 | 18 | 17 | -1.7 | 1.6
COc1cc(/C=N/NC(=O)CN2CCCCC2)ccc1OCc1ccccc1 | / | -7 | 8 | / | / | / | / | / | 4.8

The last 2 records of the section above lead into the next.
canonical_smiles | UCH37 inh | ALR H2O2 inh | B2AR ag | FGF22 binding | E coli growth | rRNA inh HTS | rRNA inh HTS OD600 | rRNA inh HTS RFP | HNF4A DNA FP
COC(=O)C1=C(C(=O)OC)SC(=C2C(=S)C(C)(C)N(C(=O)CC(C)C)c3ccccc32)S1 | 6.2 | -5 | 13 | i | 0.68 | 18 | 17 | -1.7 | 1.6
COc1cc(/C=N/NC(=O)CN2CCCCC2)ccc1OCc1ccccc1 | / | -7 | 8 | / | / | / | / | / | 4.8
CN(C(=S)NC1CCCCC1)C1(c2ccccc2Cl)CCCCC1=O (configuration not stated) | 4.2 | -10 | 6 | / | 0.69 | / | / | / | 3.0
Cc1nc2ccc(NC(=O)c3ccc([N+](=O)[O-])cc3)cc2s1 | 3.9 | -2 | -1 | / | 0.69 | / | / | / | 2.9
COc1ccc(CN(C)C[C@H]2OCCCC[C@H](C)Oc3ccc(NC(=O)CCC(F)(F)F)cc3C(=O)N([C@@H](C)CO)C[C@@H]2C)cc1 | / | / | / | i | / | 3 | -7 | -2.7 | 5.0
Cc1ccc(CNC(=O)CCSCCC(=O)NCc2ccc(C)cc2)cc1 | 1.3 | -3 | 2 | / | 0.72 | / | / | / | -1.2
O=C(Nc1nnc([C@@H]2C[C@H](O)[C@@H](CO)O2)s1)c1ccc(Oc2ccccc2)cc1 | / | / | / | i | / | -30 | -60 | -0.4 | -1.3
CCOC(=O)C(C)Oc1c(Br)cc(C2NC(=O)NC(C)=C2C(C)=O)cc1OCC (configuration not stated) | -0.8 | 2 | 22 | / | 0.72 | / | / | / | -4.2
CCOC(=O)N1CCC(NC(=O)c2cccn3c(=O)c4cc(Br)ccc4nc23)CC1 | -18 | 0 | -1 | / | 0.65 | / | / | / | 1.6
Cc1ccc(S(=O)(=O)Nc2ccccc2-c2nc3ccccc3[nH]c2=O)cc1 | -12 | / | -8 | i | 0.71 | -20 | -22 | -2.1 | 1.7
COc1ccc(C(=O)N2CCN(c3ccc(C)cc3C)CC2)cc1OC | 7.1 | / | 1 | i | 0.73 | -9 | -18 | -0.4 | 0.1
CCCCn1c(N)c(N(CCOC)C(=O)c2ccc(-c3ccc(Cl)cc3)o2)c(=O)[nH]c1=O | -4.3 | / | 2 | i | 0.68 | -1 | -2 | 0.3 | 1.6
CCOC(=O)C1CCN(C(=O)c2sc3nc(-c4ccccc4)cn3c2C)CC1 | 5.1 | -31 | 0 | / | 0.68 | / | / | / | -1.0
COc1ccccc1OCCC(=O)Nc1nc(C)cs1 | 1.0 | -1 | -3 | i | 0.64 | -2 | -2 | -4.8 | 1.3
Cc1nc2ccccn2c1C(=O)Nc1ccc2c(c1)OCCO2 | 6.4 | -7 | -8 | / | 0.63 | / | / | / | -1.6
Cc1ccc(NC(=O)CSCC(=O)Nc2ccccc2C(=O)NC2CC2)cc1 | -2.6 | / | -2 | i | 0.67 | 11 | 13 | 0.1 | -0.9
N#Cc1ccsc1NC(=O)CN1CCN(c2ccccn2)CC1 | 0.0 | -2 | -4 | / | 0.68 | / | / | / | -0.9
O=C(CSc1nc2[nH]ncc2c(=O)n1-c1ccc(Cl)c(Cl)c1)NCc1ccccc1Cl | 4.4 | -5 | 3 | i | 0.73 | 2 | -11 | -1.2 | 4.6
CC(C)[C@@H]1N[C@]2(C(=O)Nc3ccccc32)[C@@H]2C(=O)N(c3cccc(C(F)(F)F)c3)C(=O)[C@@H]21 | 5.4 | 1 | -5 | / | 0.72 | / | / | / | -0.5

Taken from above:
Under HNF4A DNA FP, `CCCCn1c(N)c(N(CCOC)C(=O)c2ccc(-c3ccc(Cl)cc3)o2)c(=O)[nH]c1=O` has 1.6
Under B2AR ag, `CCN(CC)S(=O)(=O)c1ccc(N2CCOCC2)c(NC(=O)c2ccc3c(c2)OCCO3)c1` has 3
Under rRNA inh HTS OD600, `Cc1noc(C)c1S(=O)(=O)Nc1ccc2c(c1)C(=O)N([C@H](C)CO)C[C@H](C)[C@@H](CN(C)C(=O)Nc1ccccc1)O2` has 5&0
Under HNF4A DNA FP, `O=C(Cn1nc(C(F)F)cc1C(F)F)NNC(=S)Nc1ccc(Cl)cc1` has 0.8

ALR H2O2 inh, entries above that show a hit
| molecule | UCH37 inh | ALR H2O2 inh | B2AR ag | rRNA inh HTS | rRNA inh HTS OD600 | rRNA inh HTS RFP | HNF4A DNA FP |
| --- | --- | --- | --- | --- | --- | --- | --- |
| CC(C)C(c1nnnn1C1CCCC1)N1CCc2ccccc21 (configuration not stated) | 3.6 | 99* | 1 | / | / | / | 0.4 |
